Screens: PubChem BioAssay, Broad Institute
p53 mut binder: binders of human mutant p53 | calls only | small molecule microarray binding, anti-GST fluorescence | 17,000 compounds, 0.4% hits;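 active = compounds whose four printed spots each glow above background more than chance allows, each with a p-value under 7%; compounds were printed on slides so no solution concentration is given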;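 note: about 2 pmol printed per array spot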
ID4 binder: ID4 (human) binding. P47928. small molecule microarray, Flag-ID4 binding, fluorescence F/B. calls only. 31,000 compounds, 1.2% hits. AID 624137;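 active = spot signal over background at p below 0.07 in all four prints; compounds were printed on slides so no solution concentration is given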;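 note: a binder raises fluorescence above local background on the spot; about 2 pmol printed per array spot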
Target sequence (P47928 whole entry, looked up): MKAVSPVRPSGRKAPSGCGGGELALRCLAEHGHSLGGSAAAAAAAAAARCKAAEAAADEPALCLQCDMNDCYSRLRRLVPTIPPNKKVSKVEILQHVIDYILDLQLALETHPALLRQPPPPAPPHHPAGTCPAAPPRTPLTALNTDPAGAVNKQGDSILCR
c-Myc SMM: binds human c-Myc on microarray; AID 624141; 17,000 compounds, 1.5% hits; small molecule microarray, His-c-Myc binding, anti-His fluorescence; calls only; P01106;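 active = spot fluorescence over background with P-value below 7% in all four replicate spots, showing protein binding; compounds were printed on slides so no solution concentration is given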;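 note: score is binary with 100 for all four spots passing and 0 otherwise; about 2 pmol printed per array spot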
Target sequence (P01106 whole entry, looked up): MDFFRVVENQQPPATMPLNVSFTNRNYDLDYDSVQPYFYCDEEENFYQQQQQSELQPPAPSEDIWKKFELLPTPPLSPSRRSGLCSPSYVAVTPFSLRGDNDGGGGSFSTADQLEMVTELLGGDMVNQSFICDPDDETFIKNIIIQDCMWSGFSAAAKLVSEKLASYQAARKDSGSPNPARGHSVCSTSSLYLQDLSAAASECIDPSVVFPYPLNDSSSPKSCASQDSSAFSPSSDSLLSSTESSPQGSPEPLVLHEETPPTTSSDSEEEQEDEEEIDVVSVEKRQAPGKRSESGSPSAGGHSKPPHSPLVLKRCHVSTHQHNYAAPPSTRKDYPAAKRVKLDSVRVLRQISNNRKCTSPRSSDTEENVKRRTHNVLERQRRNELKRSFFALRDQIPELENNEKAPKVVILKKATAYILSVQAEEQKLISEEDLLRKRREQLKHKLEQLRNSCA
STAT3 SMM: binds human STAT3 on microarray; calls only; 17,000 compounds, 0.2% hits; Small molecule microarray, His-STAT3 binding, anti-His fluorescence;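 active = compounds whose four printed spots each show fluorescence over background unusually high for their array block, chance value under 7%; compounds were printed on slides so no solution concentration is given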;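 note: about 2 pmol printed per array spot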
Calls only.

Preview, seven compounds:
CCOC(=O)[C@@H]1[C@@H]2NC(=O)N(C)[C@@]1(C)Oc1ccccc12 was read as p53 mut binder inactive, c-Myc SMM inactive and STAT3 SMM inactive.
Screening C[C@]12CCC(=O)C=C1CC[C@@H]1[C@@H]2C(=O)C[C@]2(C)C(=O)CC[C@@H]12 returned p53 mut binder inactive, ID4 binder inactive, c-Myc SMM inactive and STAT3 SMM inactive.
COc1ccc(C(=O)O[C@H]2CC[C@@]3(C)[C@@H]4CC[C@H]5[C@]6(O)C[C@H](O)[C@@]7(O)[C@@H](CN8C[C@@H](C)CC[C@H]8[C@@]7(C)O)[C@]6(O)C[C@@]53O[C@]24O)cc1OC was read as p53 mut binder inactive, ID4 binder inactive, c-Myc SMM inactive and STAT3 SMM inactive.
`C[C@@H]1CCOC(=O)C=CC=CC(=O)O[C@@H]2C[C@H]3O[C@@H]4C=C(CO)CC[C@]4(COC(=O)[C@H]1O)[C@]2(C)[C@]31CO1` gave p53 mut binder inactive, c-Myc SMM inactive and STAT3 SMM inactive.
Screening COC1=CC(=O)O[C@@H](CCc2ccc3c(c2)OCO3)C1 returned p53 mut binder inactive, ID4 binder inactive, c-Myc SMM inactive and STAT3 SMM inactive.
For O=c1cccc2n1CC1CNCC2C1 (stereo unspecified) the results were p53 mut binder inactive, ID4 binder inactive, c-Myc SMM inactive and STAT3 SMM inactive.
COc1cc2c(cc1O)C(CCc1ccc(Cl)cc1)N(C)CC2 (stereo unspecified) was read as p53 mut binder inactive, ID4 binder inactive, c-Myc SMM inactive and STAT3 SMM inactive.

This part in full, repeating the preview:
CCOC(=O)[C@@H]1[C@@H]2NC(=O)N(C)[C@@]1(C)Oc1ccccc12 was read as p53 mut binder inactive, c-Myc SMM inactive and STAT3 SMM inactive.
Screening C[C@]12CCC(=O)C=C1CC[C@@H]1[C@@H]2C(=O)C[C@]2(C)C(=O)CC[C@@H]12 returned p53 mut binder inactive, ID4 binder inactive, c-Myc SMM inactive and STAT3 SMM inactive.
COc1ccc(C(=O)O[C@H]2CC[C@@]3(C)[C@@H]4CC[C@H]5[C@]6(O)C[C@H](O)[C@@]7(O)[C@@H](CN8C[C@@H](C)CC[C@H]8[C@@]7(C)O)[C@]6(O)C[C@@]53O[C@]24O)cc1OC was read as p53 mut binder inactive, ID4 binder inactive, c-Myc SMM inactive and STAT3 SMM inactive.
`C[C@@H]1CCOC(=O)C=CC=CC(=O)O[C@@H]2C[C@H]3O[C@@H]4C=C(CO)CC[C@]4(COC(=O)[C@H]1O)[C@]2(C)[C@]31CO1` gave p53 mut binder inactive, c-Myc SMM inactive and STAT3 SMM inactive.
Screening COC1=CC(=O)O[C@@H](CCc2ccc3c(c2)OCO3)C1 returned p53 mut binder inactive, ID4 binder inactive, c-Myc SMM inactive and STAT3 SMM inactive.
For O=c1cccc2n1CC1CNCC2C1 (stereo unspecified) the results were p53 mut binder inactive, ID4 binder inactive, c-Myc SMM inactive and STAT3 SMM inactive.
COc1cc2c(cc1O)C(CCc1ccc(Cl)cc1)N(C)CC2 (stereo unspecified) was read as p53 mut binder inactive, ID4 binder inactive, c-Myc SMM inactive and STAT3 SMM inactive.
For Cc1[nH]c2ccc(Cl)cc2c1C1=CCNCC1 the results were p53 mut binder inactive, ID4 binder inactive, c-Myc SMM inactive and STAT3 SMM inactive.
CN1C(CC(O)c2ccccc2)CCCC1CC(O)c1ccccc1 (stereo unspecified) was read as p53 mut binder inactive, ID4 binder inactive, c-Myc SMM inactive and STAT3 SMM inactive.
CC(C)C1(NC(=O)C2CC3c4cccc5[nH]cc(c45)CC3N(C)C2)OC2(O)C3CCCN3C(=O)C(Cc3ccccc3)N2C1=O (stereo unspecified) was read as p53 mut binder inactive, c-Myc SMM inactive and STAT3 SMM inactive.
`Clc1ccc(C2=CCCC3CCC2N3)cn1` (stereo unspecified) gave p53 mut binder inactive, ID4 binder inactive, c-Myc SMM inactive and STAT3 SMM inactive.
COC1=C[C@@H]2C3=C([C@@H]2C1=O)[C@@H](NC(C)=O)CCc1cc(OC)c(OC)c(OC)c13 was read as p53 mut binder inactive, c-Myc SMM inactive and STAT3 SMM inactive.
Screening CC1=C[C@H]2[C@]3(O)[C@H](C)[C@@H](O)[C@@]4(O)[C@H]([C@@H]3C=C(CO)C[C@]2(O)C1=O)C4(C)C returned p53 mut binder inactive, ID4 binder inactive, c-Myc SMM inactive and STAT3 SMM inactive.
OC(c1ccccc1)(c1ccccc1)C1CCNCC1 was read as p53 mut binder inactive, ID4 binder inactive, c-Myc SMM inactive and STAT3 SMM inactive.
Screening CO[C@H]1[C@H](O)[C@H](O[C@H]2CC[C@]3(C)C4CC[C@]5(C)C(C6=CC(=O)OC6)CC[C@]5(O)C4CC[C@@H]3C2)O[C@@H](C)[C@@H]1O (stereo partly specified) returned p53 mut binder inactive, c-Myc SMM inactive and STAT3 SMM inactive.
`COc1cc2c(cc1OC)[C@@]13CCN4CC5=CCO[C@H]6CC(=O)N2[C@H]1[C@H]6[C@H]5C[C@H]43` gave p53 mut binder inactive, c-Myc SMM inactive and STAT3 SMM inactive.
Screening Cc1cccc(NC(=O)Cn2cc(C(=O)c3ccccc3)c3ccccc32)c1C returned p53 mut binder inactive, ID4 binder inactive, c-Myc SMM inactive and STAT3 SMM inactive.
`COc1ccc(OC)c(NC(=S)NCCc2cnc[nH]2)c1` gave p53 mut binder inactive, ID4 binder inactive, c-Myc SMM inactive and STAT3 SMM inactive.
For Cc1cc(O)cc2oc(=O)c3c(O)cc(O)cc3c12 the results were p53 mut binder inactive, ID4 binder inactive, c-Myc SMM inactive and STAT3 SMM inactive.
`CN1CCN(C(=O)CN=[N+]=[N-])CC1` gave p53 mut binder inactive, ID4 binder inactive, c-Myc SMM inactive and STAT3 SMM inactive.
For CN1CC(C(=O)N[C@]2(C)O[C@@]3(O)[C@@H]4CCCN4C(=O)[C@H](Cc4ccccc4)N3C2=O)C=C2c3cccc4[nH]cc(c34)C[C@H]21 (stereo partly specified) the results were p53 mut binder inactive, c-Myc SMM active and STAT3 SMM inactive.
Screening C=C[C@@H]1C2=CCOC(=O)C2=CO[C@H]1O[C@@H]1O[C@H](CO)[C@@H](O)[C@H](O)[C@H]1O returned p53 mut binder inactive, ID4 binder inactive, c-Myc SMM inactive and STAT3 SMM inactive.
For CCCCCCCCCCCCCC(=O)O[C@@H]1[C@@H](C)[C@@]2(O)[C@@H](C=C(CO)C[C@]3(O)C(=O)C(C)=C[C@@H]23)[C@@H]2C(C)(C)[C@]12OC(C)=O the results were p53 mut binder inactive, ID4 binder inactive, c-Myc SMM inactive and STAT3 SMM inactive.
Screening CCOC(=O)[C@@H]1[C@@H]2NC(=S)N(C)[C@@]1(COCc1ccc(OC)cc1)Oc1ccccc12 returned p53 mut binder inactive, c-Myc SMM inactive and STAT3 SMM inactive.
`CC(C)(C)c1o[nH]c(=O)c1CC(N)C(=O)O` (stereo unspecified) gave p53 mut binder inactive, ID4 binder inactive, c-Myc SMM inactive and STAT3 SMM inactive.
For CN(C)C(=O)Oc1cc(OC(=O)N(C)C)cc(C(O)CNC(C)(C)C)c1 (stereo unspecified) the results were p53 mut binder inactive, ID4 binder inactive, c-Myc SMM inactive and STAT3 SMM inactive.
For O=c1cccc2n1C[C@H]1CNCC2C1 the results were p53 mut binder inactive, ID4 binder inactive, c-Myc SMM inactive and STAT3 SMM inactive.
Screening Cc1c(O)c(C(=O)O)c(O)c2c1[C@H](C)[C@@H](C)OC2=O returned p53 mut binder inactive, ID4 binder inactive, c-Myc SMM inactive and STAT3 SMM inactive.
CN1C[C@@H](NS(=O)(=O)N(C)C)C[C@@H]2c3cccc4c3c(cn4C)C[C@H]21 was read as p53 mut binder inactive, ID4 binder inactive, c-Myc SMM inactive and STAT3 SMM inactive.
`CN1CCC2=C[C@H](O)[C@H]3OC(=O)c4cc5c(cc4[C@H]3[C@@H]21)OCO5` gave p53 mut binder inactive, ID4 binder inactive, c-Myc SMM inactive and STAT3 SMM inactive.
Screening CN1[C@@H]2CC[C@H]1CC(OC(=O)C1C=Nc3ccccc31)C2 (stereo partly specified) returned p53 mut binder inactive, ID4 binder inactive, c-Myc SMM inactive and STAT3 SMM inactive.
`CCCCC/C=C/C/C=C/C/C=C/C/C=C/CCCC(=O)NCCCC(=O)O` gave p53 mut binder inactive, ID4 binder inactive, c-Myc SMM inactive and STAT3 SMM inactive.
Screening COc1cc(O)c(C(=O)O)c(-c2cc(O)c(O)cc2C)c1 returned p53 mut binder inactive, c-Myc SMM inactive and STAT3 SMM inactive.
`CN1CCc2cc(Cl)c(O)cc2[C@H]2c3ccccc3CC[C@@H]21` gave p53 mut binder inactive, ID4 binder inactive, c-Myc SMM inactive and STAT3 SMM inactive.
`CCCN1CCC[C@@H]2Cc3nc(N)ncc3C[C@H]21` gave p53 mut binder inactive, ID4 binder inactive, c-Myc SMM inactive and STAT3 SMM inactive.
`O=C(O)c1nn(Cc2ccc(Cl)c(Cl)c2)c2ccccc12` gave p53 mut binder inactive, ID4 binder inactive, c-Myc SMM inactive and STAT3 SMM inactive.
For CC[C@H]1CN2CCC1C[C@H]2[C@H](O)c1ccnc2ccc(OC)cc12 (stereo partly specified) the results were p53 mut binder inactive, ID4 binder inactive, c-Myc SMM inactive and STAT3 SMM inactive.
For C[C@]12C=CC(=O)C=C1CCC1C2CC[C@]2(C)C(=O)CCC12 (stereo partly specified) the results were p53 mut binder inactive, ID4 binder inactive, c-Myc SMM inactive and STAT3 SMM inactive.
Screening C[C@]12CC[C@@H](O)C[C@@H]1CC[C@@H]1[C@@H]2CC[C@]2(C)[C@@H](C(=O)CO)CC[C@@H]12 returned p53 mut binder inactive, ID4 binder inactive, c-Myc SMM inactive and STAT3 SMM inactive.
Screening CCCCC/C=C\C/C=C\C/C=C\C/C=C\CCCC(=O)NCc1ccc(O)c(OC)c1 returned p53 mut binder inactive, ID4 binder inactive, c-Myc SMM inactive and STAT3 SMM inactive.
Screening CC(=O)OCC(=O)[C@H]1CC[C@H]2[C@@H]3CC[C@H]4C[C@H](O)CC[C@]4(C)[C@H]3C(=O)C[C@]12C returned p53 mut binder inactive, ID4 binder inactive, c-Myc SMM inactive and STAT3 SMM inactive.
CCC1(C)CC(=O)NC(=O)C1 was read as p53 mut binder inactive, ID4 binder inactive, c-Myc SMM inactive and STAT3 SMM inactive.
COc1ccc2c(c[n+](C)c3c4cc5c(cc4ccc23)OCO5)c1OC was read as p53 mut binder inactive, ID4 binder inactive, c-Myc SMM inactive and STAT3 SMM inactive.
Screening C/C=C1/CN2C3CC1C(CO)C2Cc1c3[nH]c2ccc(OC)cc12 (stereo unspecified) returned p53 mut binder inactive, ID4 binder inactive, c-Myc SMM inactive and STAT3 SMM inactive.
`C(=C\c1ccccc1)/CN1CCN(CCOC(c2ccccc2)c2ccccc2)CC1` gave p53 mut binder inactive, ID4 binder inactive, c-Myc SMM inactive and STAT3 SMM inactive.
O=C1NC(=O)c2c1c1c3ccccc3n3c1c1c2c2ccccc2n1C1CCC3O1 was read as p53 mut binder inactive, ID4 binder inactive, c-Myc SMM inactive and STAT3 SMM inactive.
`CCC[C@H]1C[C@H]2OC(=O)c3c(cc(OC)c(OC)c3O)[C@H]2O1` gave p53 mut binder inactive, c-Myc SMM inactive and STAT3 SMM inactive.
OC12C3C4CC5C6C4C1C6C(C53)N2CCc1cccc(F)c1 (stereo unspecified) was read as p53 mut binder inactive, ID4 binder inactive, c-Myc SMM inactive and STAT3 SMM inactive.
Screening CCOc1cncc(/C=C/CCNC)c1 returned p53 mut binder inactive, ID4 binder inactive, c-Myc SMM inactive and STAT3 SMM inactive.
Screening COC1=CC(=O)O[C@@H](CCc2ccccc2)C1 returned p53 mut binder inactive, ID4 binder inactive, c-Myc SMM inactive and STAT3 SMM inactive.
For C=C(C)[C@@H]1CCC(C)=C[C@H]1c1c(OC)cc(C)cc1OC the results were p53 mut binder inactive, ID4 binder inactive, c-Myc SMM inactive and STAT3 SMM inactive.
For Oc1ccc2c3c1OC1c4[nH]c5c(c4CC4(O)C(C2)N(CC2CC2)CCC314)CC1(O)C2Cc3ccc(O)c4c3C1(CCN2CC1CC1)C5O4 (stereo unspecified) the results were p53 mut binder inactive, c-Myc SMM inactive and STAT3 SMM inactive.
`CC(C)[C@H]1C(=O)O[C@H](C(C)C)C(=O)N(C)[C@@H](C(C)C)C(=O)O[C@H](C(C)C)C(=O)N(C)[C@@H](C(C)C)C(=O)O[C@H](C(C)C)C(=O)N1C` gave p53 mut binder inactive, c-Myc SMM inactive and STAT3 SMM inactive.
Screening C/C=C(/C)C(=O)O[C@H]1C(C)=C2[C@H]([C@@H]1OC(=O)CCCCC)[C@@](C)(OC(C)=O)C[C@H](OC(=O)CCC)[C@@]1(O)[C@H]2OC(=O)[C@@]1(C)O returned p53 mut binder inactive, c-Myc SMM inactive and STAT3 SMM inactive.
Screening COc1ccc(-c2cc(=O)c3c(OC)c(OC)c(OC)cc3o2)cc1 returned p53 mut binder inactive, ID4 binder inactive, c-Myc SMM inactive and STAT3 SMM inactive.
Screening N#CC(O[C@@H]1O[C@H](CO)[C@@H](O)[C@H](O)[C@H]1O)c1ccccc1 (stereo partly specified) returned p53 mut binder inactive, ID4 binder inactive, c-Myc SMM inactive and STAT3 SMM inactive.
For C[C@@H]1O[C@@H](O[C@@H]2C=C3CC[C@@H]4C(CC[C@]5(C)[C@@H](c6ccc(=O)oc6)CC[C@]45O)[C@@]3(C)CC2)[C@H](O)[C@H](O)[C@H]1O (stereo partly specified) the results were p53 mut binder inactive, ID4 binder inactive, c-Myc SMM inactive and STAT3 SMM inactive.

Not all compounds are listed; count on the stated rates, not on these rows.
